# Bioassay records as filed in PubChem BioAssay.
# eIF4H FP inh: human eIF4H binding inhibitors, primary screen, translation initiation inhibitor project, biochemical, uHTS, fluorescence polarization | eIF4H fluorescence polarization binding assay | inhibition, % at 35 µM | hit rate 0.94% among 290,000 | AID 2012, 2009;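 active = 50% or more with normal probe brightness, or confirmed in later tests; inconclusive = above 50% with abnormal brightness, or retests that disagree; inactive = below 50% or failed in later tests; about a fifth of its hits are not listed in these tables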;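 note: calls also rest on retests at 20 µM and on dose response follow-up; 0% = protein and probe with vehicle and 100% = probe without protein; strong numbers were not always called active; many hits fall short of the cut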
# PABP polyA inh: PABP poly(A) RNA binding inhibitors, primary screen, biochemical, fluorescence polarization, uHTS; Polyadenylate-binding protein 1 (Homo sapiens), P11940; inhibition, % at 35 µM; hit rate 1% among 290,000;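 active = 50% or more with normal probe brightness, or confirmed in later tests; inconclusive = above 50% with abnormal brightness, or retests that disagree; inactive = below 50% or failed in later tests; about a fifth of its hits are not listed in these tables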;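 note: calls also rest on retests at 20 µM and on dose response follow-up; controls were probe without protein and protein plus probe with vehicle; some compounds called inactive have numbers as strong as hits; many hits fall short of the cut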
# Rce1 inhib: yeast Rce1p protease inhibitors, primary screen, biochemical, fluorescence, cell-free homogeneous; CAAX prenyl protease 2 (Saccharomyces cerevisiae (strain ATCC 204508 / S288c)), Q03530; yeast membranes, quenched prenylated peptide cleavage fluorescence; calls only; hit rate 0.27% among 290,000; AID 2563, 2010;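 active = fall in fluorescence gain of 50% or more versus controls, with final raw signal at or below 3038400; inconclusive = same 50% fall but final raw signal above 3038400; inactive = fall in fluorescence gain under 50%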;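 note: plate controls were neutral control wells for no effect and wells lacking membranes for full effect; tested at 10 µM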
# Target sequence (Q03530 whole entry, looked up): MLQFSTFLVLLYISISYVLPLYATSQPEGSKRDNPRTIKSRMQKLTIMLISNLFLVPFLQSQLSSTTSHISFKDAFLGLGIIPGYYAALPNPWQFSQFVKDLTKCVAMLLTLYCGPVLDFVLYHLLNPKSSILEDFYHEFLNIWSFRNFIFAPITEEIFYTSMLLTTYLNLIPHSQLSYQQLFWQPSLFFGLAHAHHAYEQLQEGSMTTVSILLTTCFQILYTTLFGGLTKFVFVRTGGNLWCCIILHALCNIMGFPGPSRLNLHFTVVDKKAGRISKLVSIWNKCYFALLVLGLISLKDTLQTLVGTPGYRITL
# MT1-MMP act inh: blockers of MT1-MMP proenzyme processing, primary screen, HT1080 RFP-PRO-GFP cells, GFP/RFP fluorescence | GFP/RFP ratio fluorescence, overnight; percent of plate control window, DMSO zero | Matrix metalloproteinase-14 (Homo sapiens), P50281 | GFP/RFP ratio change, % at 20 µM | hit rate 0.061% among 360,000 | AID 651647, 2012;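 active = GFP/RFP ratio change of at least 30% with cell ATP level not reduced by more than half and red fluorescence within 50% of control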; note: strong numbers were not always called active
#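 Read-out: GFP/RFP fluorescence ratio; Test system: RFP-PRO-GFP reporter HT1080 cells; Compound dosing: single-point 20 µM compound, 1% DMSO; Times: overnight compound exposure at 37 °C.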
# Yeast UUG start: modulators of yeast start codon fidelity, primary screen, whole organism, S. cerevisiae, single point, plate reader. S. cerevisiae UUG-firefly luciferase reporter, luminescence/redox ratio. hit rate 0.13% among 350,000. activity score, % at 18.7 µM;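 active = replicate mean at a twofold rise or more, about +100% in these data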;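 note: firefly luciferase made from a UUG start codon reports start codon fidelity; reporter light over untreated wells divided by growth signal over untreated wells; some hits fall short of that in this replicate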
# HIV Env fusion: inhibitors of HIV-1 Env-driven cell-cell fusion, primary screen, HeLa-JRFL effector, CEM21 target cells, luciferase | inhibition, % at 12.3 µM | hit rate 1.1% among 360,000 | AID 651610, 2012;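 active = mean replicate inhibition score of at least 50 and every replicate individually at or above 50; inconclusive = only one of the two criteria met; inactive = mean below 50 and not all replicates reaching 50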;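 note: 0% = plate neutral controls and 100% = maraviroc near 300 nM; one replicate is shown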
# CSC inhib: cancer stem cell viability inhibitors, primary screen, luminescence | cancer stem cell-like cells viability | inhibition, % at 7.5 µM | hit rate 1.1% among 300,000;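 active = mean at 75% or more and at least half the replicates too; inconclusive = mean and replicates disagree; tested in HMLE shEcad cells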;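 note: 0% = median of negative and 100% = median of positive control wells; the first replicate is given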
# eIF4H FP inh retest: second read-out of eIF4H FP inh, no call of its own (marks repeat the call); inhibition, %; compound at 20 µM; confirmation average;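 mean of two retest wells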
# PABP polyA inh retest: further read-out of PABP polyA inh, marked with its call; inhibition, %; compound at 20 µM; confirmation repeats;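 mean of two retest wells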
# MT1-MMP act inh RFP: also measured in MT1-MMP act inh; calls as there; RFP signal change, %; measured here: RFP expression control read;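 0 = vehicle wells; hits needed this value within 50% of zero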
# * marks the source's active call; other numbers are inactive results; i = inactive; u = inconclusive; x = not tested or not shown. A portion of the library (hit frequency here may not be typical).
SMILES,eIF4H FP inh,PABP polyA inh,Rce1 inhib,MT1-MMP act inh,MT1-MMP act inh RFP,Yeast UUG start,HIV Env fusion,CSC inhib,others
COc1cc(C2CC(=O)N3CN(Cc4ccccc4)CSC3=C2C#N)ccc1OCc1ccccc1 (stereo not given),17.7,-7.1,i,2.5,-16.2,-39.0,x,0.1,
CCN1CCN(CCCNC(=O)c2ccc3c(Cl)c4c(nc3c2)CCCC4)CC1,21.5,13.0,i,1.4,2.0,15.6,21.5,-3.4,
CCCC1NC(=O)c2cccnc2-n2c1nc1ccccc1c2=O (stereo not given),x,x,x,4.8,3.5,-7.9,-19.2,x,
Cc1ccc(S(=O)(=O)Oc2ccc(N3C(=O)C4C5CCC(C5)C4C3=O)cc2)cc1 (stereo not given),3.8,-4.8,i,-1.8,-19.5,x,20.5,47.7,
COc1ccc(Cl)cc1NC(=O)Cn1c(=O)n2nc(C)nc2c2ccccc21,-4.2,1.5,i,1.0,0.1,-10.9,-1.9,-8.8,
COc1ccc(CCN(C)C2CCCN(S(=O)(=O)c3ccccc3)C2)cc1OC (stereo not given),-3.5,-7.9,i,-1.4,2.2,-1.8,1.2,x,
C/C(=N\N1CCN(C)CC1)c1ccc(Cl)c(Cl)c1,8.1,7.4,i,2.1,2.1,x,7.1,37.8,
Cc1nc(CNS(=O)(=O)c2ccc3c(c2)OCCO3)cs1,2.2,-8.1,i,6.0,-2.1,x,0.5,-24.0,
CC[C@]12c3[nH]c4ccc(OC)cc4c3CCN1C(=O)C(CC(=O)NCc1cccc(C(F)(F)F)c1)C[C@@H]2C(=O)N1CCN(C(=O)c2ccco2)CC1 (stereo not given in full),x,x,x,-4.5,-6.2,-1.0,26.5,x,
CCCNC(=O)COC(=O)/C=C/c1ccco1,u,8.1,i,-1.8,7.9,x,x,-5.1,
O=C(NC1(C(F)(F)F)NC(=O)N(CC2CCCCC2)C1=O)c1ccco1 (stereo not given),-1.2,-3.5,i,6.8,-0.5,x,x,-9.5,
COc1ccc(-c2cn(-c3ccccc3)nc2CO)cc1,-8.1,-11.8,x,5.6,2.7,22.4,-17.1,1.6,
COc1ccc(/C=C/C(=O)NC(=S)Nc2ccc(S(=O)(=O)Nc3nccnc3OC)cc2)cc1,-2.7,-5.7,i,-1.5,-3.6,-11.3,-38.7,-0.3,
CC(C)NC(=O)NNC(=O)Cn1nnc(-c2cccc(Cl)c2Cl)n1,-7.8,2.7,i,1.3,3.4,-8.9,5.6,-0.2,
Cc1cc(NC(=O)Cn2cnc3c(nnn3-c3cccc(F)c3)c2=O)no1,-0.2,-2.3,i,-1.8,-2.2,-4.5,7.1,-1.8,

# 4 successive entries already listed, for reference:
SMILES,eIF4H FP inh,PABP polyA inh,Rce1 inhib,MT1-MMP act inh,MT1-MMP act inh RFP,Yeast UUG start,HIV Env fusion,CSC inhib,others
COc1ccc(CCN(C)C2CCCN(S(=O)(=O)c3ccccc3)C2)cc1OC (stereo not given),-3.5,-7.9,i,-1.4,2.2,-1.8,1.2,x,
C/C(=N\N1CCN(C)CC1)c1ccc(Cl)c(Cl)c1,8.1,7.4,i,2.1,2.1,x,7.1,37.8,
Cc1nc(CNS(=O)(=O)c2ccc3c(c2)OCCO3)cs1,2.2,-8.1,i,6.0,-2.1,x,0.5,-24.0,
CC[C@]12c3[nH]c4ccc(OC)cc4c3CCN1C(=O)C(CC(=O)NCc1cccc(C(F)(F)F)c1)C[C@@H]2C(=O)N1CCN(C(=O)c2ccco2)CC1 (stereo not given in full),x,x,x,-4.5,-6.2,-1.0,26.5,x,

# Next structures follow:
SMILES,eIF4H FP inh,PABP polyA inh,Rce1 inhib,MT1-MMP act inh,MT1-MMP act inh RFP,Yeast UUG start,HIV Env fusion,CSC inhib,others
O=C(c1cccc(OC2CCN(Cc3ccc(F)cc3Cl)CC2)c1)N1CCCC1,0.4,11.2,i,0.2,-5.5,-2.1,11.6,-5.3,
CCOC(=O)c1c(NC(=O)CNC2CCCc3ccccc32)sc(C(N)=O)c1C (stereo not given),-3.5,-6.8,i,0.1,-1.2,x,9.3,19.8,
Fc1ccccc1/C=N/N1CCN(Cc2ccccc2Cl)CC1,-12.4,-0.4,i,4.2,6.6,-6.9,-18.5,10.4,
O=C(Nc1ccc(Br)cc1)C1C2C=CC3(O2)C1C(=O)N(CCN1CCCCC1)C3C(=O)NC1CCCCC1 (stereo not given),-8.6,1.2,x,2.9,3.4,12.4,1.2,-10.9,
Cn1ccnc1SCC(=O)c1ccc(Br)cc1,-2.7,-1.2,i,7.3,4.9,-14.3,x,3.4,
CCOC(=O)c1c(NC(=O)COC(=O)CNC(=O)c2ccco2)sc(C(C)=O)c1C,-2.9,3.5,i,4.2,4.4,-4.4,x,10.8,
CN1C(=O)CC(N2CCN(c3ccccn3)CC2)C1=O (stereo not given),-4.0,-0.3,i,1.7,2.1,-7.8,-9.2,-5.5,
COc1ccc(S(=O)(=O)N2CCN(Cc3cccc([N+](=O)[O-])c3)CC2)cc1,x,x,i,-1.7,-2.0,8.6,-2.8,0.8,
O=C(COC(=O)CCCN1C(=O)c2ccccc2C1=O)Nc1ncc(Cl)cc1Cl,33.4,17.8,i,-3.0,1.8,0.4,x,4.1,
CCOC(=O)C1=C(C)NC2=C(C(=O)C(C(=O)OCC)C(c3ccco3)C2)C1c1ccccn1 (stereo not given),12.2,17.8,i,-8.7,1.6,-12.7,-42.3,-6.3,
NC(=O)c1cc(N=Nc2c(N)[nH]n(-c3c(Cl)cc(Cl)cc3Cl)c2=O)ccc1Cl,-0.3,2.7,i,5.7,0.4,-13.1,-1.5,-13.9,
COC(=O)C(NNc1ccccc1C)(NC(=O)c1ccc(F)cc1)C(F)(F)F (stereo not given),0.3,-3.8,i,0.9,-0.6,-9.7,36.0,x,
Brc1ccccc1OCCCCCN1CCOCC1,3.9,2.6,i,-0.7,-3.6,x,8.9,4.4,
Cc1ccc(-c2nc3ccccc3nc2NN)cc1,-7.8,3.5,i,6.1,6.8,-18.4,-81.1,-18.9,
CC(=O)Nc1cccc(Oc2cnc3ccccc3n2)c1,-7.4,-9.7,i,-5.3,-2.7,-10.8,5.8,-14.0,
Cc1cccc(C(=O)NNC(=O)c2cc3cc4ccccc4nc3s2)c1,6.5,5.1,i,7.7,4.4,-13.5,x,-12.7,
C=CCOc1cccc(/C=C\c2nc(O)c([N+](=O)[O-])c(=O)[nH]2)c1,-18.2,19.8,i,0.9,2.5,-12.7,7.0,-15.1,
CCC(C)NC(=O)CCc1nnc2ccc(N3CCC(C)CC3)nn12 (stereo not given),-8.3,-2.1,i,-5.2,3.5,-10.1,-24.4,-7.9,
Cc1ccc(N2C(=O)CC(Nc3ccc(Cl)c(S(=O)(=O)N(C)C)c3)C2=O)c(C)c1 (stereo not given),17.3,4.6,i,2.5,1.4,-7.6,28.2,-12.3,
CC1CCN(CC2C(=O)O[C@@H]3C[C@@]4(C)CCC[C@H](C)C4=C[C@H]23)CC(C)(C)C1 (stereo not given in full),-1.8,-2.7,i,-21.3,-13.7,-16.2,26.1,49.6,
COc1cc(/C=C(/C#N)c2nc3ccccc3[nH]2)ccc1OCC(=O)Nc1ccccc1C(C)C,0.8,-4.5,i,3.5,1.8,-12.4,-8.9,99.8*,
CCc1ccc(NS(=O)(=O)c2ccc3[nH]cc(C(=O)NCC4CCCO4)c(=O)c3c2)cc1 (stereo not given),-8.3,0.1,i,1.5,-0.4,-11.3,-22.7,15.3,
COC(=O)C1=C(C)NC(=O)/C1=C\c1cc(C)n(-c2ccccc2)c1C,63.4,-5.5,i,-15.8,2.6,x,4.7,x,eIF4H FP inh retest=1.9;PABP polyA inh retest=-0.4
C/C=C\C=C/C(=O)Nc1cccc(C2=NOC3(C2)C[C@@H](C(N)=O)N(C(=O)[C@H]2CCC(=O)N2)C3)c1 (stereo not given in full),1.0,-6.7,i,0.0,6.3,-21.4,x,-2.4,
Cc1ccccc1Oc1ncnc2oc(-c3ccccc3)cc12,5.2,-8.4,x,-0.5,-1.4,-10.1,x,-1.7,
O=P(Cc1nnco1)(c1ccccc1)c1ccccc1,5.0,6.6,i,-7.5,0.6,-19.7,x,x,
C[C@@H]1CN([C@H](C)CO)C(=O)Cc2cc(NS(=O)(=O)c3ccc(Cl)cc3)ccc2O[C@H]1CN(C)Cc1ccc(C(F)(F)F)cc1,x,x,x,-5.3,-15.0,-6.5,x,105.3*,
CCOCCCNC(=O)c1c(C)c(C(=O)OCC)n(C)c1C,2.1,8.3,i,0.3,4.5,x,-114.4,-8.4,
O=C1/C(=C/c2cccnc2)SC(=S)N1CCc1ccccc1,-4.2,0.4,i,4.9,3.6,x,5.3,5.4,
COCCn1c(N)c(N(Cc2ccccc2)C(=O)c2ccc(C#N)cc2)c(=O)[nH]c1=O,-0.2,-7.7,i,2.3,1.5,-14.0,-14.8,-11.7,
S=c1[nH]nc(-c2cc(-c3ccccn3)nc3ccccc23)o1,7.6,16.9,i,-0.9,-0.5,x,26.4,-0.4,
COc1ccc(C(C(=O)NCCC(C)C)N(CCO)C(=O)c2snc(C(N)=O)c2N)cc1OC (stereo not given),-6.5,-0.3,i,-2.9,3.6,-12.2,35.1,3.4,
COc1ccc(OC)c(NC(=O)CSc2nc3[nH]c(=O)[nH]c(=O)c3s2)c1,x,x,x,-2.0,3.2,-26.0,-20.2,x,
CCc1cc2cc(C)ccc2nc1SCC(=O)NC1CCCC1,-5.7,3.5,i,-3.9,-1.0,-17.6,4.6,45.2,
COc1ccc(Cl)cc1S(=O)(=O)N1CCC(C(=O)NCc2ccccn2)CC1,x,x,i,2.2,2.2,x,3.6,-4.5,
O=C(Nc1cccc2ccccc12)c1ccc(Cn2cc(Cl)cn2)cc1,0.1,-4.3,i,-0.5,-0.8,x,x,-2.4,
Cc1ccc(S(=O)(=O)N2CCCC(C(=O)NCCc3ccc4c(c3)OCO4)C2)cc1 (stereo not given),-1.7,-0.6,i,1.0,-12.4,9.4,x,-9.9,
CCOC(=O)c1sc(NC(=O)CNCc2cccnc2)c(C(=O)OCC)c1C,-8.9,-16.1,i,-0.5,-8.2,4.7,4.6,7.5,
CN1C(=O)/C(=C\c2ccc(-c3ccccc3)o2)SC1=S,12.0,19.8,i,11.8,32.5,-18.4,15.4,-1.4,
Cc1nc2c3ccccc3nc(SCC(=O)c3ccc(Cl)cc3)n2n1,-17.5,-6.7,i,0.5,-3.2,-10.8,x,30.6,
O=C(Nc1ccc(C(=O)c2ccc(C(=O)O)c(C(=O)O)c2)cc1)c1ccccc1,-5.5,20.6,i,-2.2,2.6,-15.9,-8.8,-7.0,
